From PubChem
AF4-AF9 inh – blocks AF4 peptide binding to human AF9; AlphaScreen, biotin-AF4 peptide binding to FLAG-AF9; hit rate 0.47% among 350,000; inhibition, % at 10 µM; P42568;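 active means every replicate reaching a set inhibition limit, whatever the replicate mean, cut at about 25% in these data; inconclusive means mean inhibition reaches that limit but some replicates miss it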;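 further: 0% = plate neutral control median and 100% = total signal loss; the record names both 10 and 1 µM as test concentration; the first replicate is given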
Target sequence (P42568 whole entry, looked up): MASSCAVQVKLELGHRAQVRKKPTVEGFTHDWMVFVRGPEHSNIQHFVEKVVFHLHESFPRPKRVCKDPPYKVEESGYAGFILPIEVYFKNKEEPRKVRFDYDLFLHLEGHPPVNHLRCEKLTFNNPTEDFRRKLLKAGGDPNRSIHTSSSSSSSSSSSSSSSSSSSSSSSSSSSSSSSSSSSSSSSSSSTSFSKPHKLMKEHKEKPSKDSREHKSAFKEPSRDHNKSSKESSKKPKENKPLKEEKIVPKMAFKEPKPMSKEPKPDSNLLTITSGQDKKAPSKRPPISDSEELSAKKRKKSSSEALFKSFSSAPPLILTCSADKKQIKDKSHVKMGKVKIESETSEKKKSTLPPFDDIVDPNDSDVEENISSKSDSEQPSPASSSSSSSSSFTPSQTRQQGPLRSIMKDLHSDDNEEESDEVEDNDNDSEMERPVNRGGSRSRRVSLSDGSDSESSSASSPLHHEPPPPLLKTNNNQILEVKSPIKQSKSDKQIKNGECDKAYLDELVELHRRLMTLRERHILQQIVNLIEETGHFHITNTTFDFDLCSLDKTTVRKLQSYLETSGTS
A1 inh – inhibitors of the anti-apoptotic protein A1, read as caspase activation; MEF A1-2A-BIM cells, Caspase-Glo 3/7 luminescence, 3 h; percent of clofoctol response, vehicle zero; caspase activation, % (no concentration beside the values); hit rate 0.066% among 330,000;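 active means over half of replicate activation scores above 10%, or exactly half above 10 with the replicate mean above 10; inconclusive means replicate mean below 10 yet half the replicates above 10; inactive means over half of replicates below 10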;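 further: wells of about 30 µL received 50 nL stock; many hits fall short of the cut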
T cruzi repl – T. cruzi replication inhibition | T. cruzi beta-gal in NIH3T3, luminescence, 90 h | inhibition, % (no concentration beside the values) | hit rate 1.4% among 300,000;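 active means mean inhibition across valid replicates above about 55%, limit read from the data; inconclusive means mean below that limit but half or more replicates reach it; inactive means mean below it, under half of replicates reach it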;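 further: signal also drops with host cell toxicity which is not excluded here; 0% = plate median of DMSO wells and 100% = zero luminescence signal; higher percent means less beta-gal luminescence so fewer parasites; stock transfer was 50 nL into about 50 µL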
FGF22 binding – binders of recombinant human FGF22 by thermal shift; SYPRO orange fluorescence; percent of sucrose octasulfate shift, DMSO zero; calls only at 9.99 µM; hit rate 1.5% among 340,000; AID 651658;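 active means melting point raised past a set limit in the mean and every replicate; inconclusive means no clear call; three in four hits are not shown here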
Target sequence (Q9HCT0 whole entry, looked up): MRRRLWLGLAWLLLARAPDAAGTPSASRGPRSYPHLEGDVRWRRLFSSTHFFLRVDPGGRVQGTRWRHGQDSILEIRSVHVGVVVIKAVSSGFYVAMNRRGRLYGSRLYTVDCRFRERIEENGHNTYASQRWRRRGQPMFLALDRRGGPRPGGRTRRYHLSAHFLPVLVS
Beta apoptosis – beta cell apoptosis inhibition; INS-1E cytokine-induced death, ATP luminescence, 48 h; percent of positive-control rescue, neutral wells zero; protection from apoptosis, % (test concentration not listed); AID 435005; hit rate 0.8% among 300,000;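 active means all replicates at 75% or more, or half of them and the mean; inconclusive means half reach 75% but not the mean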;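 further: 0% = cytokine-treated negative control wells and 100% = positive control rescue; higher means more ATP so stronger rescue from cytokine killing; wells of about 40 µL received 100 nL stock; the first replicate is given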
UCH37 inh – inhibitors of human deubiquitinating enzyme UCH37 | Q9Y5K5 | purified proteasome/UCH37, Ub-AMC cleavage fluorescence | inhibition, % (test concentration not listed) | hit rate 0.33% among 330,000;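 active means mean of two replicates above 20%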;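 further: 0% = compound-free wells with enzyme and 100% = wells lacking proteasome; stock transfer was 100 nL into about 20 µL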
Target sequence (Q9Y5K5 whole entry, looked up): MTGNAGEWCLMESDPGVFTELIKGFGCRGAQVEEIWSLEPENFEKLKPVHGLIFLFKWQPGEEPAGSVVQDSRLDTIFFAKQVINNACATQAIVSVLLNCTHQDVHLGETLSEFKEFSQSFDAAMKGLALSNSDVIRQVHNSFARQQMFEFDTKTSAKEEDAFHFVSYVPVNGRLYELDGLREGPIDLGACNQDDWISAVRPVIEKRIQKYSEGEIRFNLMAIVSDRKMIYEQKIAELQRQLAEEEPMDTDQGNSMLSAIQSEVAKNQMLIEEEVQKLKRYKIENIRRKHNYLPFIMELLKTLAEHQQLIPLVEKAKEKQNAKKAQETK
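assay system = human UCH37 enzyme supplied as purified proteasome complex | amount = proteasome at 0.15 nM in the dispensed enzyme solution | schedule = 30 min compound-proteasome preincubation then 25 min substrate reaction, room temperature | measured by = fluorescence, ex 355 nm, em 460 nm | benchmarks = no-proteasome wells (full inhibition) and compound-free wells (no inhibition)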
Ecoli growth – inhibitors of Escherichia coli growth | OD600, 23 h; stronger effect = lower value | hit rate 0.21% among 330,000 | OD600 absorbance (test concentration not listed);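 active means OD600 absorbance below the run mean of sample wells minus 3.6 SD, in any replicate, cut at about 0.56 in these data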;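 further: stock transfer was 300 nL into about 60 µL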
Ecoli rRNA inh – selective bacterial rRNA inhibition in E. coli; GFP signal change (wild-type ribosome), % (no concentration beside the values); AID 720706; hit rate 1.6% among 350,000; E. coli WT GFP vs humanized-ribosome RFP mutants, fluorescence, 24 h; stronger effect = lower value; DMSO median 0, no signal -100;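 active means significant combined selectivity score with lowered wild-type GFP, culture density cut under 30%, mutant RFP and density less affected; inactive means any of these conditions unmet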; further: one replicate is shown; some compounds called inactive have numbers as strong as hits
Ecoli rRNA inh OD600 – further read-out of Ecoli rRNA inh, marked with its call; OD600 change, %; measured here: OD600 growth;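 optical density of the mix in the first replicate; 0 = DMSO median and -100 = no signal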
Ecoli rRNA inh RFP – second read-out of Ecoli rRNA inh, no call of its own (marks repeat the call); RFP signal change, %; measured here: RFP humanized mutant strains;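 first replicate; 0 = DMSO median and -100 = no signal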
* hit, by the source's call; i = inactive; ? = inconclusive; / = no result given. A portion of the library, so the mix of outcomes need not match the whole.

SMILES	AF4-AF9 inh	A1 inh	T cruzi repl	FGF22 binding	Beta apoptosis	UCH37 inh	Ecoli growth	Ecoli rRNA inh	Ecoli rRNA inh OD600	Ecoli rRNA inh RFP
COc1cccc(Cn2c(OCC3CCCO3)nc3c2c(=O)n(C)c(=O)n3C)c1 (centres undefined)	-0.8	0.4	14	i	-2	-0.1	0.69	0	-3	3.1
NCCCC(=O)O	-1.5	0.4	?	i	-4	2.8	/	-7	-8	-1.1
CCSc1nnc2c(Cl)cc(Cl)cn12	/	0.9	/	/	1	2.3	0.71	/	/	/
CCOc1ccc(C2=Nn3c(nnc3-c3ccc(OC)cc3)SC2)cc1	/	-0.2	36	/	17	2.1	0.7	/	/	/
CSc1nc(O)c(C(c2ccc(C)cc2)c2c(O)nc(SC)[nH]c2=O)c(=O)[nH]1	-0.6	-0.2	-9	i	-3	2.6	0.66	17	11	1.7
COc1ccc(CCN=C2SCC(=O)N2C)cc1OC	-0.2	0.1	7	i	1	1.2	0.73	10	5	0.9
COC(=O)CC1=C(C(=O)OC)C(c2ccc3c(c2)OCO3)C(C#N)=C(N)O1 (centres undefined)	-5.0	0.6	-6	i	-1	3.6	0.68	9	-1	0.8
O=C(NCc1ccccc1)C1CCN(c2nc(-c3ccccc3)nc3c2CCC3)CC1	-1.3	0.2	41	i	/	3.8	0.74	0	-1	2.2
COc1cc(C(C)=NNC(=O)c2ccncc2)ccc1O	-1.4	/	/	i	/	7.5	0.65	26	14	1.9
Cc1ccc(OCCOC(=O)Cn2nc(C)c([N+](=O)[O-])c2C)cc1	-2.9	0.6	-9	i	1	5.4	0.72	17	0	-7.8
COC(=O)c1c(NC(=S)Nc2ccc(F)cc2[N+](=O)[O-])sc2c1CCCCC2	/	-1.5	-4	/	-1	-19	0.69	/	/	/
Cc1ccccc1N1C(=O)CC1(C#N)c1ccc(OCc2ccccc2)cc1 (centres undefined)	-7.4	-0.8	16	i	0	1.0	0.67	-1	-3	-0.9
O=C(Nc1cc(S(=O)(=O)N2CCOCC2)ccc1O)c1ccc(S(=O)(=O)N2CCCCC2)cc1	-4.6	0.2	/	i	2	2.0	0.7	-1	-3	15
O=C(CSc1ccc(Cl)cc1)Nc1ccccc1Oc1ccccc1	/	-0.8	-1	/	-8	4.6	0.7	/	/	/
CC1(C)NC(=O)N(CC(=O)Nc2cc(C(F)(F)F)cc(C(F)(F)F)c2)C1=O	0.3	0.8	-7	i	-3	1.8	0.73	0	6	-1.8
Cc1cc(C)n(C(=O)C(C)N2C(=O)c3ccccc3C2=O)n1 (centres undefined)	/	-0.2	-15	/	4	5.6	0.65	/	/	/
Cc1cc2cc(CNC(=O)NC3CCCCC3)ccc2[nH]1	/	-0.3	4	/	-6	1.5	0.71	/	/	/
COc1ccccc1CNC(=O)c1ccc(S(=O)(=O)N(C)C)cc1	/	1.3	-12	/	2	2.0	0.64	/	/	/
COc1cc(NC(=S)NC2CC(C)(C)NC(C)(C)C2)c(OC)cc1Cl	0.6	-0.4	-26	i	-3	39*	0.71	8	1	-0.9
Brc1ccc2ncnc(NCc3ccco3)c2c1	/	-1.7	14	/	3	1.3	0.68	/	/	/
NC(=O)CC(NC(=O)Cc1ccc(Br)cc1)c1ccc(N2CCC(Br)CC2)c([N+](=O)[O-])c1 (centres undefined)	-0.5	0.7	7	i	-1	-0.8	0.6	4	9	-2.5
Cc1ccc(S(=O)(=O)N2CCN(Cc3nc4ccccc4n3C)CC2)cc1	/	0.3	9	/	-9	0.5	0.67	/	/	/
CN1CCN(CC/C=C2/c3ccccc3Sc3ccc(S(=O)(=O)N(C)C)cc32)CC1	14	-0.5	29	i	-8	0.5	/	/	/	/
COc1ccc(C(C)=O)cc1COC(=O)[C@H](Cc1ccccc1)NC(=O)c1ccco1	0.7	-0.5	/	i	-5	-2.2	0.69	-9	-21	1.1
Cc1ccc(/C=C2/SC(=S)N(CCC(=O)N3CCOCC3)C2=O)cc1	-2.1	-1.9	-1	i	-19	6.1	0.7	11	16	-0.4
CSc1ncc(CN2CCC(C(=O)Nc3cccc(-c4cscn4)c3)CC2)cn1	-0.6	-0.2	8	i	/	3.4	0.69	0	0	-1.6
CN(C)S(=O)(=O)c1cccc(-c2nn(-c3ccccc3)cc2/C=C(/C#N)C(=O)NCc2ccco2)c1	/	0.1	36	/	4	-30	0.7	/	/	/
CC(=O)Nc1ccc(S(=O)(=O)N(C#N)c2nc(N(C)C)nc(N(C)C)n2)cc1	-0.4	0.4	-5	i	5	-0.6	0.68	3	13	16
COc1ccccc1C(=O)NCCC(=O)NCCCSc1ccccc1	-1.4	0.0	-15	i	-2	/	/	-6	-9	1.9
COC(=O)C1=C(C)NC(=O)NC1/C=C/c1ccccc1 (centres undefined)	/	1.4	-1	/	7	2.0	0.74	/	/	/
O=c1[nH]c2cccnc2n1-c1ccc([N+](=O)[O-])cc1	7.0	0.4	3	i	-1	4.1	0.7	9	2	-5.7
Clc1ccc(CN2C3=NCCCN3c3ccccc32)c(Cl)c1	1.9	1.7	20	i	7	5.2	0.66	1	-9	0.9
O=C(NC(=S)N1CCCc2ccccc21)c1ccccc1	/	0.4	0	/	3	4.6	0.67	/	/	/
COc1ccc(NC(=O)COc2ccc(/C=C/c3cccc[n+]3C)cc2OC)cc1	?	0.1	-7	i	9	-20	0.64	7	9	-1.7
Cc1cccc(-n2nc3c(c2NC(=O)CCC2CCCCC2)CS(=O)C3)c1C (centres undefined)	-3.3	-0.1	-8	i	1	1.4	0.75	-16	-31	-11
COc1ccc(C[C@H]2CN3C(=NC[C@@H]3C(C)C)N2CCNC(=O)c2ccc(C)c(Br)c2)cc1	/	0.3	53	/	27	-1.7	/	/	/	/
CN1C(=O)C(CC(=O)Nc2ccccc2F)N(NC(=O)c2ccc(Br)cc2)C1=S (centres undefined)	1.8	0.2	-9	i	-7	6.1	0.69	-15	-7	1.8
Cc1cc(CNCCN(C)C)c(C)n1-c1cc(S(=O)(=O)N2CCOCC2)ccc1N1CCCC1	19	/	/	i	/	2.4	0.67	/	/	/
CCNc1ccccc(-c2ccc3ccccc3n2)c1=O	/	-0.1	-10	/	-2	2.3	0.69	/	/	/
COC(=O)c1ccc(NC(=O)COc2ccc(S(=O)(=O)NC(C)C)cc2)cc1	/	-0.1	7	/	-2	1.9	0.71	/	/	/

Exported field by field: part of the list above
> CCNc1ccccc(-c2ccc3ccccc3n2)c1=O
  AF4-AF9 inh: /
  A1 inh: -0.1
  T cruzi repl: -10
  FGF22 binding: /
  Beta apoptosis: -2
  UCH37 inh: 2.3
  Ecoli growth: 0.69
  Ecoli rRNA inh: /
  Ecoli rRNA inh OD600: /
  Ecoli rRNA inh RFP: /
> COC(=O)c1ccc(NC(=O)COc2ccc(S(=O)(=O)NC(C)C)cc2)cc1
  AF4-AF9 inh: /
  A1 inh: -0.1
  T cruzi repl: 7
  FGF22 binding: /
  Beta apoptosis: -2
  UCH37 inh: 1.9
  Ecoli growth: 0.71
  Ecoli rRNA inh: /
  Ecoli rRNA inh OD600: /
  Ecoli rRNA inh RFP: /
> CN1C(=O)C(CC(=O)Nc2ccccc2F)N(NC(=O)c2ccc(Br)cc2)C1=S (centres undefined)
  AF4-AF9 inh: 1.8
  A1 inh: 0.2
  T cruzi repl: -9
  FGF22 binding: i
  Beta apoptosis: -7
  UCH37 inh: 6.1
  Ecoli growth: 0.69
  Ecoli rRNA inh: -15
  Ecoli rRNA inh OD600: -7
  Ecoli rRNA inh RFP: 1.8
> O=c1[nH]c2cccnc2n1-c1ccc([N+](=O)[O-])cc1
  AF4-AF9 inh: 7.0
  A1 inh: 0.4
  T cruzi repl: 3
  FGF22 binding: i
  Beta apoptosis: -1
  UCH37 inh: 4.1
  Ecoli growth: 0.7
  Ecoli rRNA inh: 9
  Ecoli rRNA inh OD600: 2
  Ecoli rRNA inh RFP: -5.7

Continued:
SMILES	AF4-AF9 inh	A1 inh	T cruzi repl	FGF22 binding	Beta apoptosis	UCH37 inh	Ecoli growth	Ecoli rRNA inh	Ecoli rRNA inh OD600	Ecoli rRNA inh RFP
CCOC(=O)N1CCN(c2ccc(O)cc2)CC1	/	0.2	-14	/	4	1.7	0.71	/	/	/
O=C(CSc1ccc(-c2ccccc2)nn1)c1cccs1	-4.0	-1.6	2	i	-3	4.0	0.67	-22	-13	-23
COC(=O)c1ccsc1NC(=O)c1cccc(OC)c1	-3.8	-2.1	-8	i	1	-33	0.64	-27*	5.6*	2.9*
CC1CCN(C(=O)c2cc3nc(C4CC4)cc(C(F)(F)F)n3n2)CC1	/	0.3	10	/	3	1.3	0.67	/	/	/
CC1=CCC(C(=O)O)C(C(=O)Nc2ccc(-c3nc4ccc(C)cc4s3)cc2)C1 (centres undefined)	1.5	-5.2	4	i	-2	-394	0.65	-31	-33	-1.6
O=C(Nc1ccc2nc(-c3cccnc3)[nH]c2c1)C1CCCCC1	/	?	-6	/	8	-5.8	0.71	/	/	/
NS(=O)(=O)c1ccc(NC(=O)CN2CCN(Cc3ccccc3)CC2)cc1	/	-0.2	-13	/	-1	-3.4	0.74	/	/	/
Cc1cc(C)cc(C(=O)NCCC(=O)NCc2cc(=O)n(C)c(=O)n2C)c1	-3.0	2.0	-1	i	-2	1.9	0.7	12	12	-0.7
C=CC[C@H](CC(=O)NCCO)C(=O)N[C@@H](COC(=O)[C@H](CC=C)CC(=O)OC(C)(C)C)Cc1ccccc1	0.1	-0.9	/	i	-1	0.4	0.69	1	3	8.8
CCC(C)c1ccc(NC(=O)NCCN2CCCCC2)cc1 (centres undefined)	0.6	0.0	3	i	-2	1.6	0.7	7	2	4.5
COc1cc([N+](=O)[O-])ccc1NC(=O)CN1CCN(C(=O)c2ccco2)CC1	2.1	-0.1	-2	i	4	5.8	0.66	-1	-11	-0.8
COC(=O)c1ccc(OC(=O)CS(=O)c2ccccc2[N+](=O)[O-])cc1 (centres undefined)	-5.2	0.8	-12	i	-8	2.5	0.66	20	19	-0.8
CC(C)C(=O)N(c1ccc2oc(=O)sc2c1)S(=O)(=O)c1ccccc1	-36	0.8	21	i	-5	4.8	0.75	18	16	-6.8
N#C/C(=C1/CCCN1)c1ccccn1	-51	0.3	-9	i	-2	3.5	0.66	8	5	-4.8
CSCCC(NS(=O)(=O)c1ccc(C)cc1)C(=O)N(C)CC(=O)Nc1ccccc1Br (centres undefined)	1.9	/	/	i	/	3.3	0.71	-1	-18	4.5
CC(C)Oc1ccc(CCC(=O)N/N=C/c2ccncc2)cc1	/	0.5	3	i	2	/	/	-18	-26	4.0
COC(=O)c1c(NC(=O)C(=O)NCCCN2CCOCC2)sc2c1CCCC2	9.1	-0.2	29	i	/	4.2	0.66	2	5	-0.7
CCN1CCN(c2ccc(S(=O)(=O)N3CCOCC3)cc2NC(=O)c2ccc(C)c(C)c2)CC1	2.0	0.1	31	i	/	2.6	0.7	7	3	-1.3
COc1ccc(C2NN=C(c3ccc(C)cc3)S2)cc1OC (centres undefined)	0.4	-7.1	0	i	9	-51	0.7	17	10	4.3
Cc1nc2ccccc2n1CC(=O)NC1CCCC1	-0.1	-0.1	3	i	0	5.8	0.68	9	9	0.3
COc1cc(C)cc2c1OC(c1ccccc1)CC2=O (centres undefined)	1.4	/	/	i	/	-11	0.7	-4	-10	7.8
